# Sfp inh = Sfp phosphopantetheinyl transferase inhibition | Potency, µM, inactives show max response, negative = inhibition, actives largely listed as inhibitors | Q9F4F7 | AID 1490 | 310,000 tested, 3.5% active | Biochemical Sfp PPTase activity, qHTS; active = well fitted inhibition curve with a large enough effect; inconclusive = small, poorly fitted or top-dose-only effect, or another doubt; inactive = no such curve, though single readings can be large or run the other way;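 note: the enzyme is Sfp with the accession as filed and its product quenches rhodamine fluorescence; potency is the fitted concentration of half-maximal effect; 0% = enzyme reaction without inhibitor and -100% = no enzyme wells; top concentration of the series not given in the record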
#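 Fluorescence-quenching assay: 15 nM Sfp-PPTase preincubated 15 min at room temperature with compound, then 5 uM rhodamine-CoA and 12.5 uM BHQ-2-labelled YbbR peptide added. Fluorescence (ex 525/em 598 nm) read at start and after 30 min; difference gives rate.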
# ClpP mod = qHTS Assay for Activators of ClpP; ATP-dependent Clp protease proteolytic subunit (Bacillus subtilis (strain 168)), P80244; purified B. subtilis ClpP, FRET peptide cleavage, 20 min; Potency, µM (top dose mostly 57.5 µM), inactives show at the highest dose activity change, negative = active; 340,000 tested, 1.9% active; active = well fitted falling curve with a large enough effect; inconclusive = small, poorly fitted or top-dose-only effect; inactive = no such curve, though single readings can be large or run the other way; note: potency is the fitted concentration of half-maximal effect; the source files actives as falling curves though it sought activators and does not explain the sign; nearly all actives have a fitted effect of over 65% in size; many hits overshoot -100%
# Target sequence (P80244 whole entry, looked up): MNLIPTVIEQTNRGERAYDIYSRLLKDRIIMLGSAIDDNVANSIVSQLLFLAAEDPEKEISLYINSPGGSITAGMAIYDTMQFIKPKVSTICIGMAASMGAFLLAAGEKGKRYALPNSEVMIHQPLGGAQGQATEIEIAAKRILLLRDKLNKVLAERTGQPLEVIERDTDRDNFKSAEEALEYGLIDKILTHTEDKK
#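 FRET quenching reversal measured ClpP activation: 10 microg/mL B. subtilis ClpP at pH 8 with the FRET-FV decapeptide, read at 430 nm after 320 nm excitation. The 20-min minus 0-min signal was scaled between DMSO/no-enzyme wells and ADEP (5.8 microM final).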
# gsp antagonist = antagonists of gsp mutant (McCune-Albright syndrome). 340,000 tested, 0.4% active. Potency, µM (doses to about 76.9 µM), for inactives: top-dose activity change, negative = inhibition, actives largely listed as inhibitors. AID 624288. gsp-mutant cells, cAMP HTRF, 30 min; control for the full effect not named in the record; active = falling curve of any shape with a large fitted effect; inconclusive = falling curve, mostly with a smaller effect; inactive = flat or rising curve; cell line not stated here;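 note: intracellular cAMP measured with PDE inhibitor Ro 20-1724 present during compound exposure; potency is the fitted concentration of half-maximal effect; % is set by controls: 0 for no effect and ±100 for the full control effect; nearly all actives have a fitted effect of over 65% in size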
#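 Measurement of cellular cAMP by homogeneous time-resolved fluorescence following a 30 min compound exposure at 37C. The PDE inhibitor […] was present throughout; the assay buffer was DPBS with 0.05% BSA and 0.005% Tween 20.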
# gsp agonist = agonists of gsp mutant (McCune-Albright syndrome); gsp mutant cells, cAMP HTRF, 30 min; control for the full effect not named in the record; Potency, µM (titrated, usually from 76.9 µM), for inactives: at the highest dose activation (cAMP increase), usual class: activators; 340,000 tested, 0.13% active; active = well fitted activation curve with a large enough effect; inconclusive = small, poorly fitted or top-dose-only effect, or another doubt; inactive = no such curve, though single readings can be large or run the other way; cell line not stated here;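 note: phosphodiesterase inhibitor Ro 20-1724 added with compounds to block cAMP breakdown; potency is the fitted concentration of half-maximal effect; nearly all actives have a fitted effect of over 60% in size; about a fifth of the inactives were tested at one dose only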
#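 Cells stably selected in G418 were plated at 2000/well, grown 16-24 hr, then given compounds in DMSO with the PDE inhibitor […] (300 uM solution added) for 30 min at 37C; cAMP was read by HTRF.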
# TRPML1 inh = blocks the human TRPML1 channel. 390,000 tested, 0.02% active. TRPML1-inducible cells, Ca2+ dye fluorescence, FDSS; active compounds read low; inhibition of EC80 agonist-evoked calcium signal. activity change, negative = inhibition, % (concentration not given with the values). AID 624415. Q9GZU1; in the data active means activity change below about -50%; inconclusive means about -30% to -50%; inactive means above about -30%;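 note: stimulus is agonist 54-4 at its EC80 concentration; % is set by controls: 0 for no effect and ±100 for the full control effect; the text of the record puts the active cut at -80%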
# Target sequence (Q9GZU1 whole entry, looked up): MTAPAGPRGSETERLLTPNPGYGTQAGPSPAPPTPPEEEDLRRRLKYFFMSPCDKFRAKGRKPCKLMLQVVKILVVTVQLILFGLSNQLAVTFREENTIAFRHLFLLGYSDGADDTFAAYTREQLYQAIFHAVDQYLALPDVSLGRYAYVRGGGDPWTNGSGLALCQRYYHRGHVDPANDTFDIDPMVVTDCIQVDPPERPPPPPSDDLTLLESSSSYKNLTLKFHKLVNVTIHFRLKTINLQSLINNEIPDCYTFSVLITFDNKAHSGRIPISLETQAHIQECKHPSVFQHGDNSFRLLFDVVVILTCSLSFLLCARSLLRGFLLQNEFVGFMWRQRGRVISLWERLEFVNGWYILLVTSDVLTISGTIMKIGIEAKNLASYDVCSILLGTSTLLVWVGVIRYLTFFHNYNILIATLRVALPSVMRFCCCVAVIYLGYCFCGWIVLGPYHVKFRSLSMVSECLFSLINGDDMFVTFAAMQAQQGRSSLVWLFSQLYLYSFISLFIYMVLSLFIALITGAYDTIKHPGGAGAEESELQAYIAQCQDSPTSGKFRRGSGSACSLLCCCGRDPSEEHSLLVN
#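 TRPML1-DL cells, Tet-induced overnight (~16 h, 37 °C) at 1,500 cells/well, were loaded with Ca8 no-wash dye plus quencher for 45-90 min at room temperature. Compounds were pinned during FDSS kinetic reading; agonist 54-4 at EC80 (4 uM final) then added.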
# TRPV1 potentiator = human TRPV1 potentiation; Q8NER1; TRPV1-expressing cells, Fluo-8 calcium influx, capsaicin EC20 potentiation; host cell line not named in the record; control for the full effect not named in the record; potentiation, % at 8.33 µM; 320,000 tested, 0.02% active; AID 540277; active means potentiation above 80%; inconclusive means 30% to 80%; inactive means below 30%; note: 0% is about no effect
#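 Cells expressing TRPV1 were dye-loaded with Fluo-8 and read kinetically: 10 s baseline, 3 min after compound (agonist portion), then 2 min after EC20 capsaicin (allosteric enhancer portion). Calcium-bound dye fluorescence at 480/520 nm.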
# Menin MLL FP FL = inhibitors of human menin-MLL interaction, wild-type MLL peptide; Fluorescence polarization, fluorescein-MLL peptide displacement from menin; AID 1766; FP activity change, % at 61.4 µM; 290,000 tested, under 10 active; inconclusive = falling polarisation curve, or a change in total fluorescence; inactive = total fluorescence flat and polarisation flat or rising; no compound was filed as active; the % refers to the polarisation; negative = inhibition;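 note: % of control where 0% means no effect; inhibitors lower the polarisation; unlabelled MLL peptide was the positive control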
# Numbers without * were called inactive; ? = inconclusive; . = no result given; & = joins results of further samples; ! = not confirmed by another sample; [ ] = dose if it differs, or a comment.
SMILES,Sfp inh,ClpP mod,gsp antagonist,gsp agonist,TRPML1 inh,TRPV1 potentiator,Menin MLL FP FL
CN(C)C(C)(C)C#CCCCCC#CC(C)(C)N(C)C,8%,0.7%,3%,1%,1,-2,-6.6
COc1ccc2cc(S(=O)(=O)N3CCCC(C)C3)ccc2c1 (stereo not drawn),-5%,.,-2%,11%[15.4 µM],19,-6,-0.2
C=CCc1cccc(/C=N/NC(=O)COc2ccc(-n3cnnn3)cc2)c1O,15%,0.6%,-2%,-2%,33,5,.
COc1cccc(N2CCN(C(=O)c3ccc(CS(=O)c4ccccc4Cl)o3)CC2)c1 (stereo not drawn),13%,2.0%,17%,0%,0,3,.
CN1CCN(C(=O)c2ccccc2NC(=O)Cc2ccccc2)CC1,7%,0.4%,7%,?,-15,0,4.8
COc1ccccc1N1CCN(CCCCOc2ccc(C)cc2C)CC1,?,0.6%,6%,?,7,9,-7.2
CCNS(=O)(=O)c1ccc(NC(=O)Nc2ccccc2OC)cc1,-10%,.,2%,-8%[15.4 µM],4,4,-1.7
C=CCn1c(SCC(=O)N2CCN(c3ccc(F)cc3)CC2)nnc1-c1ccco1,-1%,1.6%,-9%,-10%,40,-8,2.6
COc1ccc(-c2c(C)c3ccc(O)cc3oc2=O)cc1,-6%,4.0%,-2%,-3%,-9,5,5.0
CC(=O)NC(Cc1ccccc1F)C(=O)NC1CCN(S(=O)(=O)c2ccccc2)CC1 (stereo not drawn),25%,.,18%,-7%[15.4 µM],23,13,-1.7
CSCC[C@H](NC(=O)c1cccc(S(=O)(=O)N2CCCCC2)c1)c1nc2ccccc2[nH]1,.,.,-12%,15%,-12,.,.
CCOC(=O)[C@H]1[C@H]2COc3ccc(C)cc3[C@@H]2N2C(=O)c3ccc(Cl)cc3NC(=O)[C@@]12C,.,-17%,-7%,.,-4,.,.
NS(=O)(=O)c1cccc(NC(=O)COC(=O)C2CCN(S(=O)(=O)c3cccs3)CC2)c1,17%,.,6%,-4%[15.4 µM],23,2,3.4
Cn1nc(C(=O)NNC(=O)Cc2ccc(S(=O)(=O)N3CCOCC3)s2)c2ccccc2c1=O,.,1.8%,2%,6%,-3,.,.
CC(=O)Nc1ccc2nc(SCC(=O)NCCOc3ccccc3)sc2c1,12%,2.0%,1%,7%,-4,-7,-2.3
Cc1ccc(C(=O)N2CCN3C(=O)c4ccccc4C23c2ccccc2)cc1 (stereo not drawn),-1%,.,6%,-2%[15.4 µM],-5,-8,-1.6
COCCCC1CCN(C(=O)C2CCC(=O)N(CCc3cccc(F)c3)C2)CC1 (stereo not drawn),19%,-7.9%,-10%,21%[15.4 µM],46,1,.
Cc1cc(/C=N/NS(=O)(=O)c2ccc(F)c(Cl)c2)no1,-2%,.,11%,3%[15.4 µM],6,-8,5.4
CCOC(=O)C1CCCN(C(=O)Cn2cnc3c2c(=O)n(C)c(=O)n3C)C1 (stereo not drawn),9%,0.7%,6%,?,3,2,2.7
CCOC(=O)c1c(-c2ccccc2)csc1NC(=O)CCN1CCOCC1,50µM*,-2.7%,-6%,-1%,30,17,0.0
CCc1cc2c(NCCC(=O)O)nc(C)nc2s1,9%,28µM*,-9%,14%,6,-7,2.9
CC(C)(C)OC(=O)C[C@@H]1C/C=C\C[C@@H](CC(=O)N(CCO)Cc2ccccc2)C(=O)N[C@@H](c2ccccc2)COC1=O,.,-1.2%,-9%,.,-13,.,.
O=C(COc1ccc(F)cc1Cl)NC1CCCCCC1,.,-3.0%,-1%,24%,3,?,.
O=P(NC1CCCCC1)(c1ccccc1)c1ccccc1,.,.,-7%,4%,2,.,.
COc1ccc(S(=O)(=O)N2CCCCCC2)cc1C(=O)OCc1cccc(OC)c1OC,.,-1.8%,-5%,1%[15.4 µM],10,3,.

# The last 3 entries of the section above come first, to join the parts:
SMILES,Sfp inh,ClpP mod,gsp antagonist,gsp agonist,TRPML1 inh,TRPV1 potentiator,Menin MLL FP FL
O=C(COc1ccc(F)cc1Cl)NC1CCCCCC1,.,-3.0%,-1%,24%,3,?,.
O=P(NC1CCCCC1)(c1ccccc1)c1ccccc1,.,.,-7%,4%,2,.,.
COc1ccc(S(=O)(=O)N2CCCCCC2)cc1C(=O)OCc1cccc(OC)c1OC,.,-1.8%,-5%,1%[15.4 µM],10,3,.
COc1ccc(CC(=O)Nc2ccccc2C(F)(F)F)cc1S(=O)(=O)N1CCOCC1,.,1.6%,.,17%,40,.,.
CC(=O)C1=C(O)C(=O)N(CCc2c[nH]c3ccccc23)C1c1ccco1 (stereo not drawn),-9%,-0.6%,-5%,-5%,14,12,2.8
COc1ccc(NC(=O)CCn2cccc2)c(OC)c1,19%,.,2%,9%[15.4 µM],2,-5,-1.2
CCOC(=O)c1[nH]n(-c2ccc(Cl)cc2)c(=O)c1C,-18%,-1.3%,-12%,13%,16,-5,5.0
COc1ccc(NC(=S)NCCc2ccccc2)c(C)c1,-5%,1.3%,8%,17%,-9,-21,-6.5
COc1cc(/C=N/NC(=O)CCn2c3ccccc3c3ccccc32)cc(OC)c1OC,5%,64%,-8%,-17%,8,10,1.2
CCOCCCNC(=S)Nc1ccc2nc3n(c(=O)c2c1)CCCCC3,-2%,.,2%,?,39,8,1.2
COc1ccccc1-c1nc(C#N)c(N2CCN(c3ccccc3)CC2)o1,11%,28µM*,-6%,24%,-5,19,1.5
c1cnc2ccc(C(c3nnnn3C3CCCC3)N3CCSCC3)cc2c1 (stereo not drawn),-8%,?,-7%,-2%,32,-70,3.3
O=C(NC(Cc1c[nH]c2ccccc12)C(=O)N/N=C/c1cccnc1)c1cccs1 (stereo not drawn),-6%,.,.,-1%[15.4 µM],-9,20,4.6
CCN(CC)C(=O)Oc1ccnc2cc(Cl)ccc12,12%,.,-4%,24%[15.4 µM],12,0,1.5
O=C(c1ccc(Cl)cc1)N1N=C(c2ccccn2)CC1(O)C(F)(F)F (stereo not drawn),0%,.,-15%,9%,29,.,-0.6
O=S(=O)(Nc1ccc2c(c1)OCO2)c1cccs1,-4%,-1.2%,0%,-58%[inhibitor],23,20,0.1
COc1cc(CN2CCSCC2)c([N+](=O)[O-])cc1OC,?,-1.4%,9%,0%[15.4 µM],-3,-6,4.9
CC(C)(C)N(NC(=O)Nc1ccc(F)cc1)C(=O)c1ccccc1,18%,-1.0%,12%,-11%[15.4 µM],29,0,6.5
CCOc1ccc(NC(=S)NC(C)CCc2ccccc2)cc1 (stereo not drawn),11%,.,-1%,-3%[15.4 µM],8,-3,-0.7
COCCCN1C(=O)c2ccc(C(=O)Nc3ccccc3Cl)cc2C1=O,1%,2.8%,-4%,-6%,7,-28,1.3
O=S(=O)(c1ccc(NCCOc2ccccc2)nc1)N1CCCC1,.,-18%,3%,10%,4,-1,.
NS(=O)(=O)c1ccc(CCNC(=O)COC(=O)C2CCN(c3ccc(C(F)(F)F)cn3)CC2)cc1,.,-13%,-5%,-16%,-4,-11,.
COc1cccc(-c2nn(-c3ccccc3)cc2C(=O)OCC(=O)Nc2ncc(Cl)cc2Cl)c1,?,-1.9%,-9%,0%[15.4 µM],3,23,6.9
CCN(Cc1cc(=O)[nH]c2ccccc12)C(=O)C(C)C,6%,.,3%,16%[15.4 µM],29,3,2.4
CCOc1ccc(CCNC(=O)c2cccc(C#N)c2)cc1OCC,-8%,.,-12%,21%[15.4 µM],-1,17,-1.3
COC(=O)[C@H]1[C@H]2C[C@@H]3c4[nH]c5cc(OC)ccc5c4CCN3C[C@H]2C[C@@H](OC(=O)/C=C/c2cc(OC)c(OC)c(OC)c2)[C@@H]1OC,.,-29%,-20%,.,5,10,.
CC(C)CN(CCNC(=O)CN1N=C(c2ccc(Cl)cc2)CCC1=O)CC(C)C,12%,1.2%,10%,?,.,-17,-1.2
Cc1sc2nc(SCC(=O)NCCOCCO)n(C)c(=O)c2c1C,-13%,-1.0%,7%,21%,15,-10,4.1
# (cont.)
SMILES,Sfp inh,ClpP mod,gsp antagonist,gsp agonist,TRPML1 inh,TRPV1 potentiator,Menin MLL FP FL
CCSc1nnc(NC(=O)NCC(F)(F)F)s1,-3%,-1.7%,7%,0%,-6,?,0.2
COc1ccc(NS(=O)(=O)c2cccc(C(=O)O)c2)cc1S(=O)(=O)N1CCCCC1,.,-1.6%,4%,7%,-15,.,.
Cc1ccc(C(=O)Nc2cccnc2)cc1[N+](=O)[O-],17%,-0.5%,4%,-2%,5,-3,0.6
COC(=O)CCCC[C@H]1SC[C@H]2NC(=O)N[C@]21O,40µM*,.,.,.,.,7,0.0
COc1ccccc1N1CCN(C2CCN(C(=O)c3cccc(F)c3)CC2)CC1,-27%,-1.0%,7%,-10%,-5,-1,1.6
CN(C)c1ccc(NC(=O)CN2C3CCCC2CC(NC(=O)c2ccccc2)C3)cc1 (stereo not drawn),-10%,.,-13%,-1%[15.4 µM],-6,-7,-5.8
COC(=O)[C@H]1C[C@@H]1[C@H](NS(=O)(=O)c1ccccc1)c1ccccc1,71µM*!,2.2%,1%,4%,8,-4,-1.6&0.0
Cc1cc2cc(C(c3nnnn3C3CCCC3)N(Cc3cccnc3)Cc3ccco3)c(=O)[nH]c2cc1C (stereo not drawn),56µM*,?,-23%,3%,-4,-1,1.7
O=C(CP(=O)(CO)CO)c1ccc(Cl)cc1,0%,1.4%,7%,-22%,7,-5,3.4

# Random excerpt: 2 compounds from above
SMILES,Sfp inh,ClpP mod,gsp antagonist,gsp agonist,TRPML1 inh,TRPV1 potentiator,Menin MLL FP FL
Cc1cc2cc(C(c3nnnn3C3CCCC3)N(Cc3cccnc3)Cc3ccco3)c(=O)[nH]c2cc1C (stereo not drawn),56µM*,?,-23%,3%,-4,-1,1.7
CCSc1nnc(NC(=O)NCC(F)(F)F)s1,-3%,-1.7%,7%,0%,-6,?,0.2

# Bioassay records from PubChem BioAssay.

# Compounds were not picked by outcome; about 4.9% have a hit in one of these screens.
